Screening data: PubChem, National Center for Advancing Translational Sciences (NCATS)
KAT2A inh: blocks human GCN5L2 histone acetyltransferase; AID 504327; GCN5L2 HAT assay, ThioGlo1 CoA-SH fluorescence; Potency, µM (highest dose often 58.9 µM), without a hit: top-dose activity change, negative = inhibition, most hits filed as inhibitors; 390,000 compounds, 0.21% hits; Q92830
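GCN5L2 (20 nM) in 50mM HEPES pH 7.5, 0.1mM EDTA, 0.01% Tween-20 preincubated 15 min with compounds at room temperature. Reaction started with H3(1-25) 75uM, acetyl-CoA 70uM, ThioGlo1 50uM; CoA-thiol fluorescence (Ex340/Em540) read at 0 and 20 min.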
FEN1 inh: inhibitors of human flap endonuclease 1 | P39748 | Potency, µM (titrated, usually from 114 µM), for inactives: at the highest dose activity change, negative = inhibition, most hits filed as inhibitors | Recombinant FEN1 flap cleavage, fluorescence, 15 min | 390,000 compounds, 0.35% hits; also: nearly all actives have a fitted effect of over 65% in size
Target sequence (P39748 whole entry, looked up): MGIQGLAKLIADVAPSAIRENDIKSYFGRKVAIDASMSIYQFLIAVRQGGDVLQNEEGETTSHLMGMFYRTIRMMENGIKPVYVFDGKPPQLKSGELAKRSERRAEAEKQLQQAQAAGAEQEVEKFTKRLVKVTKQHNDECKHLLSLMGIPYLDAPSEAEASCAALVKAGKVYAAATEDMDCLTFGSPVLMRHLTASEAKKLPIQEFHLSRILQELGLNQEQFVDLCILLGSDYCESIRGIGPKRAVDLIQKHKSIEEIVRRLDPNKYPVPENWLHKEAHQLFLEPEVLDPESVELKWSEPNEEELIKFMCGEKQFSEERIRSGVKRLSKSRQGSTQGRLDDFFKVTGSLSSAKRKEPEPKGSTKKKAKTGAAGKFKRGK
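Quantitative HTS format: each compound was titrated, incubated with 10 nM nuclease for 15 min at room temperature, then challenged with flap substrate at 50 nM final. Signal change over 15 min gave concentration–effect curves.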
Numbers without * were called inactive; ? = inconclusive; / = not tested or not shown; & = joins results of further samples. Calls follow the shape of the dose curve; as a rule, active = well fitted curve in the direction sought with a large enough effect; inconclusive = small, poorly fitted or top-dose-only effect, or another doubt; inactive = no such curve, though single readings can be large; an effect the other way counts as inactive or inconclusive. % is scaled to controls: 0 for no effect and ±100 for the full control effect; potency is read from the fitted curve at half-maximal effect.

SMILES	KAT2A inh	FEN1 inh
CCC1(C)Cc2sc3c(=O)[nH]c(=S)[nH]c3c2CO1 (configuration not stated)	25µM*	-1%
COC/C=C/C1=CC2=CC(=O)C(C)(OC(=O)c3cnc4ccccc4n3)C(=O)C2=CN1CCCOC(C)C (configuration not stated)	17%	-12%
COc1ccccc1C(=O)N=C1NC(=O)CC2C(=O)NCCN12 (configuration not stated)	-4%	-5%
CC(=O)N(/N=C1\Sc2ccccc2C1=O)c1cccc(C)c1	5%	-6%
Cc1ccc2cc(/C=N/Nc3nc4ccccc4[nH]3)c(Cl)nc2c1	-2%	-4%
CC(C)Oc1ccccc1C1CC(=O)Nc2cc3c(cc21)OCO3 (configuration not stated)	-6%	-19%
Cc1cc(NC(=O)CSc2nnc(COc3ccccc3)n2Cc2ccco2)no1	-3%	-17%
CCN(CC)C(=O)Cn1cnc2sc(C(=O)N3CCN(Cc4ccc5c(c4)OCO5)CC3)c(C)c2c1=O	-2%	-1%
O=C(COC(=O)C(Cc1ccccc1)NC(=O)c1ccco1)NC1CC1 (configuration not stated)	-5%	-12%
Cc1ccccc1NC(=O)CSc1nnc(CNC(=O)c2ccco2)n1C	-3%	1%
O=C(O)CCSc1nnc(SCC(=O)NCC(F)(F)F)s1	-4%	-9%
NC(=O)c1ccccc1N=Cc1ccccn1	-3%	4%

Single records, from the list above. Values in the order: KAT2A inh, FEN1 inh
Listed for CC(C)Oc1ccccc1C1CC(=O)Nc2cc3c(cc21)OCO3 (configuration not stated) = -6%, -19%
Listed for O=C(COC(=O)C(Cc1ccccc1)NC(=O)c1ccco1)NC1CC1 (configuration not stated) = -5%, -12%
Listed for COc1ccccc1C(=O)N=C1NC(=O)CC2C(=O)NCCN12 (configuration not stated) = -4%, -5%

Next part.
SMILES	KAT2A inh	FEN1 inh
CCC(=O)c1c(NC(CC)CO)cc(C)oc1=O (configuration not stated)	2%	-1%
O=C1C(=O)N(CCS(=O)(=O)c2ccccc2)c2ccc(Cl)cc21	-3%	6%
O=C(Nc1ccc(F)cc1)OCCOc1ccc(Br)cc1	-19%	-13%
COc1c(Cl)cc(Cl)cc1CNc1ccc(S(N)(=O)=O)cc1	1%	-13%
CC(OC(=O)c1cccc(NS(C)(=O)=O)c1)C(=O)Nc1ccc2c(c1)OCO2 (configuration not stated)	0%	-3%
CCOC(=O)c1ccc(NC2c3ccccc3C(=O)N2c2ccccn2)cc1 (configuration not stated)	-3%	13%
CCCC(C)NC(=O)COc1ccc(S(=O)(=O)N2CCCC2)cc1 (configuration not stated)	-3%	5%
C/C(=N\NC(=O)CSCc1ccc(Cl)cc1)c1ccc2c(c1)OCCO2	-11%	-15%
O=C(CN1C(=O)C(=O)N(C2CCCC2)C1=O)Nc1ccc(OC(F)F)cc1	1%	-8%
C/C(=N\NC(=O)COc1cccc(Cl)c1)c1ccc2c(c1)OCCO2	0%	0%
CC(C)(C)NC(=O)c1ccc2c(c1)C(=O)N(C1CCCCC1)C2=O	1%	-19%
Cc1nnsc1C(=O)N/N=C/c1ccc(OC(F)(F)F)cc1	-7%	-2%
Cc1ccccc1OCCCc1c(C)n[nH]c1C	-3%	1%
Nn1c(SCC(=O)Nc2ccccc2Oc2ccccc2)nnc1C1CC1	-6%	-1%
COc1ccc(OC)c(/C=N/NC(=O)c2cc3c(OC)c(OC)ccc3[nH]2)c1	4%	?
Cc1ccc(S(=O)(=O)NCCOCCNS(=O)(=O)c2ccc(C)cc2)cc1	-6%	0%
Cc1cc(C)cc(-n2c(C)cc(C(=O)CSc3nnnn3C)c2C)c1	-1%	-3%
Cc1ccccc1C(=O)/C=C1/c2ccccc2CC(C)(C)N1C	-14%	6%
CC[C@@H]1C(c2ccccc2)=NN(c2ccc(Br)cc2)[C@H]1C(=O)N1CCOC1=O	-15%&-4%	?
O=c1[nH]c(=S)[nH]c2c1CN(Cc1ccc(F)cc1)CC2	-13%	-1%
COc1ccc(C(=O)Nc2cc(C)c(NC(=O)c3ccccc3OC)cn2)cc1	-12%	-2%
CC1(C)CC(NC(=O)Nc2ccc([N+](=O)[O-])cc2)CC(C)(C)N1	-4%	-1%
Cc1ccc(NC(=O)N(CCCN2CCOCC2)Cc2cccnc2)cc1C	-1%	4%
S=C(NNc1ccc2ccccc2c1)NC1CCCCC1	-8%	-17%
C/C(=N\NC(=O)Cc1csc(N2CCOCC2)n1)c1ccc(Cl)c(Cl)c1	-10%	6%
CSc1nc2ccc(S(=O)(=O)N3CCCC3)cc2s1	-5%	-3%
O=C(COC(=O)c1n[nH]c2ccccc12)Nc1cccc(S(=O)(=O)N2CCOCC2)c1	-4%	-9%
Cc1csc(NC(=O)c2ccc(C)c(S(=O)(=O)N3CCCCC3)c2)n1	-2%	-3%
O=C(O)C(CCCCN1C(=O)c2ccccc2C1=O)N1C(=O)c2ccccc2C1=O (configuration not stated)	10%	8%
C=CCn1c(COc2ccccc2F)nnc1SCC(=O)Nc1cc(C)on1	-3%	5%
O=C(c1ccccc1)c1cc(-c2ccccc2)on1	-19%	-2%
CCOc1cc(CNCCO)ccc1OCC(=O)NC(C)(C)C	0%	-1%
O=C(Nc1cccc2ncccc12)C(Cl)(Cl)Cl	3%	4%
Cc1cc(=O)oc2cc(OCc3nnc(-c4ccccc4Br)o3)ccc12	-4%	-15%
CCOC(=O)C1CCN(C(=O)COc2ccc3c(C)cc(=O)oc3c2)CC1	3%	-9%
CCCc1c(O)nc(SCC(=O)NCCc2ccc(OC)c(OC)c2)[nH]c1=O	-2%	-3%

Arranged by value in FEN1 inh (ascending): some entries from above
compound	FEN1 inh
Cc1cc(=O)oc2cc(OCc3nnc(-c4ccccc4Br)o3)ccc12	-15%
O=C(COC(=O)c1n[nH]c2ccccc12)Nc1cccc(S(=O)(=O)N2CCOCC2)c1	-9%
CSc1nc2ccc(S(=O)(=O)N3CCCC3)cc2s1	-3%
O=C(c1ccccc1)c1cc(-c2ccccc2)on1	-2%
O=C(Nc1cccc2ncccc12)C(Cl)(Cl)Cl	4%
C/C(=N\NC(=O)Cc1csc(N2CCOCC2)n1)c1ccc(Cl)c(Cl)c1	6%
O=C(O)C(CCCCN1C(=O)c2ccccc2C1=O)N1C(=O)c2ccccc2C1=O (configuration not stated)	8%

Following part:
SMILES	KAT2A inh	FEN1 inh
COc1ccc(/C=C/C(=O)NC(=S)N2CCSCC2)cc1	-7%	13%
COc1cc(NC(=O)c2cnn3c(C(F)F)cc(C4CC4)nc23)c(OC)cc1Cl	4%	18%
Cc1c(NC(=S)/C=C2\N(C)c3ccccc3C2(C)C)c(=O)n(-c2ccccc2)n1C	-5%	-10%
CC(Sc1ncn[nH]1)C(=O)c1c(N)n(C)c(=O)n(C)c1=O (configuration not stated)	0%	-1%
CC1(C)N([O-])C(c2cccs2)=C[N+]1=O	-2%	1%
CC1=CC(c2ccccc2)=Nc2ccc(C)cc2N1	-2%	-6%
O=S(=O)(NCC1CCCO1)c1cccc(C(F)(F)F)c1 (configuration not stated)	-11%	-2%
COc1ccc(-n2c(Cc3cccn3C)nnc2SCC(=O)Nc2cc(Cl)ccc2OC)cc1	-5%	-16%
Cc1cc(C)n(C(=O)c2cccc(S(=O)(=O)N3CCCC3)c2)n1	1%	5%
CCC(=O)Nc1cc(-c2nn(C)c(=O)c3ccccc23)ccc1N1CCOCC1	-10%	2%
O=C(Cn1ncc2c(=O)oc3ccccc3c21)N1CCN(c2ccc(Cl)cc2)CC1	-6%	19%
CCCCNC(=O)NCCN1CCOCC1	-5%	0%

Given with the structure last: part of the list above
KAT2A inh	FEN1 inh	Molecule
-2%	1%	CC1(C)N([O-])C(c2cccs2)=C[N+]1=O
-2%	-6%	CC1=CC(c2ccccc2)=Nc2ccc(C)cc2N1
-11%	-2%	O=S(=O)(NCC1CCCO1)c1cccc(C(F)(F)F)c1 (configuration not stated)

Later entries.
SMILES	KAT2A inh	FEN1 inh
COc1ccccc1CNC(=O)CCCn1nc(C)c2c(C)n(-c3ccccc3)nc2c1=O	0%	18%
CN=C(N)NCCCC(N)C(=O)O (configuration not stated)	2%	/
COCc1cc(C)nc(SCC(=O)Nc2ccc3c(c2)n(C)c(=O)n3C)c1C#N	-3%	-2%
c1ccc(C(c2nnnn2C2CCCC2)N2CCN(c3ccccc3)CC2)cc1 (configuration not stated)	0%	-21%
COc1ccc2cc(CO)c3cc(OC)c(OC)cc3c2c1	-15%	?
Cc1ccc(S(=O)(=O)N(C)c2ccc(OCC(=O)NCc3ccco3)cc2)cc1	-1%	-18%
COc1ccc(CCNC(=O)c2ccc(S(=O)(=O)N3CCCCC3)cc2)cc1	-10%	-7%
Clc1ccc(-c2csc(N/N=C/c3ccc4c(c3)OCO4)n2)cc1	-7%	3%
COC(=O)c1cc(OC)c(OC)cc1NC(=S)N1CCCC(CO)C1 (configuration not stated)	-4%	3%
CC(=O)C1=C(C)OC(N)=C(C#N)C1c1ccncc1 (configuration not stated)	1%	1%
CCOC(=O)C1CCN(C(=O)Cn2cccc2C(=O)c2ccccc2)CC1	0%	-7%
COc1ccc(C2c3c(ccc4ccccc34)Oc3ncn4nc(CO/N=C/c5ccccc5)nc4c32)cc1 (configuration not stated)	-18%	-9%
O=C(CSc1ccc(Cl)cc1)OCc1nnc(-c2ccccc2)o1	1%	-1%
COc1ccccc1C(=O)NCC(=O)NCC1(N2CCCCC2)CCCCC1	-1%	-1%
O=C(OCC(=O)N1CCCC1)c1c(Cl)ccc(Cl)c1Cl	-1%	1%
O=C(Nc1ccccc1[N+](=O)[O-])c1cccnc1Cl	0%	-1%
COC1CCCN(Cc2c(C(=O)N3CCc4ccccc4C3)nc3ccc(Cl)cn23)C1 (configuration not stated)	-4%	-16%
CN1C(=O)c2ccccc2Sc2ccc(NC(=O)N3CCN(c4ccc(F)cc4)CC3)cc21	-14%	12%
Cc1ccc(CONC(=O)c2ccccc2Cl)cc1	0%	-1%
CCOC(=O)N1CCN(S(=O)(=O)c2cccs2)CC1	-13%	-3%
COc1ccc(S(=O)(=O)N(C)CC(=O)N2CCCCCC2)cc1OC	?	1%
O=C(CC12CC3CC(CC(C3)C1)C2)N1CCN(S(=O)(=O)c2cccs2)CC1	-6%	2%
O=C(Nc1cccc([N+](=O)[O-])c1)ONC1=NCCCCC1	21%	-6%
CCOc1ccc(OCC)c(NS(=O)(=O)c2ccc3c(c2)n(C)c(=O)c(=O)n3C)c1	-1%	6%

Next part, overlapping the part above by 2 compounds.
SMILES	KAT2A inh	FEN1 inh
O=C(Nc1cccc([N+](=O)[O-])c1)ONC1=NCCCCC1	21%	-6%
CCOc1ccc(OCC)c(NS(=O)(=O)c2ccc3c(c2)n(C)c(=O)c(=O)n3C)c1	-1%	6%
CC(C)NC(=O)C(=O)NCC(c1ccc2c(c1)OCO2)N1CCOCC1 (configuration not stated)	-2%	-10%
CSc1nc2ccc(NC(=O)c3ccc(F)c(F)c3)cc2s1	-2%	-4%
O=C(NN1C(=O)C2C(C1=O)C1C=CC2C12CC2)c1cccc(Cl)c1 (configuration not stated)	-1%	3%
O=C(COC(=O)CCC(=O)c1ccc(F)cc1)Nc1ccc2[nH]c(=O)[nH]c2c1	-3%	-16%
CCOc1ccc(C(=O)Nc2ccc(S(=O)(=O)N3CCCCC3c3cccnc3)cc2)cc1 (configuration not stated)	-10%	-14%
COc1ccc(OC)c(S(=O)(=O)NNC(=S)Nc2ccc3c(c2)OCO3)c1	-8%	-5%
Cc1noc(C)c1CSCC(=O)Nc1nc2ccc(F)cc2s1	-3%	-10%
Cc1cccc(C(=O)Oc2ccccc2/C=N/NC(=O)c2ccc(NC(=O)C(C)(C)C)cc2)c1	-3%	-8%
Cc1cccc(-n2c(N)cc(=O)[nH]c2=S)c1C	0%	9%
Cc1[nH]c2ccc(C(=O)NCCCN(C)C3CCCCC3)cc2c1C	4%	2%
Cc1cc(C)nc(SCC(=O)c2ccc([N+](=O)[O-])cc2)n1	-4%	1%
CCCCOC(=O)C1[C@H]2C(=O)N(Cc3cccs3)C[C@]23C=C[C@H]1O3 (some centres not stated)	-3%	2%
Cc1[nH]c2ccccc2c1C(=O)COC(=O)c1c(-c2c(F)cccc2Cl)noc1C	0%	-7%
Cc1cc[n+](C(C)C(=O)c2ccc(-c3ccccc3)cc2)cc1 (configuration not stated)	-5%	-11%
CCOc1ccc(NC(=O)CCSc2nnc(C)s2)cc1	-9%	11%
CCNC(=S)N/N=C/c1cn(Cc2ccc(F)cc2)c2ccccc12	-12%	-15%
Cc1nc(NC(=O)/C=C/c2ccccc2)n[nH]1	-9%	-7%
O=C(COc1ccccc1)NCc1cccs1	-4%	7%
S=C(NCCCN1CCOCC1)Nc1ccc(Nc2ccccc2)cc1	-5%	0%
O=C(C(=C1NCCN1)n1cncn1)c1ccccc1	-2%	3%
COc1ccccc1N1CCN(C(=O)CN(C)S(=O)(=O)c2ccc3c(c2)c(=O)n(C)c(=O)n3C)CC1	-3%	-5%
CCCCN1C(=O)C2(NNc3ccccc3O2)c2ccccc21 (configuration not stated)	-17%	?
CC1(C)CC(=O)C2=C(C1)NC1=C(C(=O)c3ccccc31)C2c1cc([N+](=O)[O-])ccc1O (configuration not stated)	-3%	-11%
CC(=O)c1sc2nsc(SCCN3CCOCC3)c2c1N	?	-12%
COC(=O)C1=C(C)Nc2c(c(=O)n(C)c(=O)n2C)C1c1ccncc1 (configuration not stated)	-4%	-1%
O=C(NCc1ccccc1)c1c(F)c(F)c(F)c(F)c1F	2%	-1%
CCN(CC)C(=O)CN(c1ccc(C)cc1)S(=O)(=O)c1ccc(SC)cc1	-2%	-2%
CCOC(=O)Cn1c(-c2ccccc2)ccc(C#N)c1=O	-14%	-5%

The list is partial; most or all hits stand in other tables.
